miR-21 reporter: raises the signal of a miR-21 reporter. HeLa miR-21 FLuc reporter, luciferase, 48 h. Potency, µM (titrated, usually from 38.3 µM), without a hit: at the top dose reporter change, positive = more light. 340,000 tested, under 10 active; active = well fitted rising curve with a large enough effect; inconclusive = small, poorly fitted or top-dose-only effect; inactive = no such curve, though single readings can be large or run the other way;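 note: % of control where 0% means no effect; miR-21 action dims this reporter so a rising signal means less miR-21 action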
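HeLa cells endogenously expressing miR-21, stably carrying CMV-driven firefly luciferase with a downstream miR-21 binding site, 2000 cells/well. Titrations up to approximately 40 uM, 48 hours; luciferase luminescence read.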
* = called active by the depositor; ? = inconclusive.

miR-21 reporter | structure
-6% | Cc1ccc(OCCSc2nc3ccc(NC(=O)c4ccc(F)cc4)cc3s2)cc1
2% | CCCCC(=O)OC1=C(C(C)=O)N(Cc2ccccc2)S(=O)(=O)c2ccccc21
15% | Cc1ccc(N(Cc2cccs2)C(=O)c2ccccc2)cc1
21% | COc1ccccc1C(=O)NCCn1cc(SCc2ccccc2Cl)c2ccccc21
5% | CCOC(=O)c1ccc(NC(=O)CS(=O)(=O)Cc2nc(-c3ccc(C)cc3)oc2C)cc1
0% | Cc1cc(Nc2nc3ccccc3c3nnc(C)n23)ccc1Br
-15% | CC1CCN(c2nn3c(=O)c(C(=O)NCCCOC(C)C)cnc3s2)CC1
-13% | COc1cc2c(cc1OC)C(COc1ccc3c(C)cc(=O)oc3c1)N(C(=O)C(C)C)CC2 (centres undefined)
21% | Cc1ccc(N(CC(=O)NCc2ccc(OC(C)C)cc2)S(=O)(=O)N(C)C)cc1
-45% | COCCCNC(=O)c1ccc2nc(CCc3ccccc3)oc2c1

Rewritten with each value named: 4 of the compounds above.
Cc1ccc(OCCSc2nc3ccc(NC(=O)c4ccc(F)cc4)cc3s2)cc1
  miR-21 reporter = -6%

CCCCC(=O)OC1=C(C(C)=O)N(Cc2ccccc2)S(=O)(=O)c2ccccc21
  miR-21 reporter = 2%

Cc1ccc(N(Cc2cccs2)C(=O)c2ccccc2)cc1
  miR-21 reporter = 15%

COc1ccccc1C(=O)NCCn1cc(SCc2ccccc2Cl)c2ccccc21
  miR-21 reporter = 21%

Next section
miR-21 reporter | structure
0% | Cc1ccc(Cc2nc3ccccc3nc2SCC(=O)N2CCCc3ccccc32)cc1
-5% | COC(=O)c1cc2occc2n1CC(=O)Nc1ccc(N(C)C)cc1
0% | CC(C)Oc1ccc(C(=O)N2CCC(c3nc4ccccc4s3)CC2)cc1
1% | Cc1ccc(-n2c(=O)c3c4c(sc3n(CC(=O)Nc3cccc(Cl)c3)c2=O)CCCCC4)cc1C
8% | CC(=O)N1CCc2c(sc3c2c(=O)n(-c2ccc(C)cc2)c(=O)n3Cc2ccccc2C)C1
-12% | CCN(CC)C(=O)c1sc2c(c1C)c(=O)n(-c1ccc(C)c(C)c1)c(=O)n2Cc1cc(=O)n2ccccc2n1
-22% | CCOc1ccc2[nH]c3c(NCCN(C)C)ncnc3c2c1
25% | O=C(NCCn1cc(SCc2ccc(F)cc2)c2ccccc21)c1cccs1
-38% | COCCn1c(=NC(=O)c2ccc3c(c2)OCCO3)sc2cc(C(=O)OC)ccc21
-1% | CCOc1ccc(Cn2c(CNS(=O)(=O)c3ccc([N+](=O)[O-])cc3)nc3cccnc32)cc1

Next section.
miR-21 reporter | structure
-11% | Cc1coc2c(C)c3oc(=O)c(CCC(=O)NCCc4ccccc4)c(C)c3cc12
6% | CCOc1ccc(OCC)c(Nc2nc3ccccc3c3nnc(C)n23)c1
29% | CCN(C(=O)c1sc2cc(OC)ccc2c1Cl)c1ccccc1
-9% | Cc1cccc(-c2cc(NC(=O)COc3ccccc3F)n(-c3ccccc3)n2)c1
-3% | CCc1nnc(SCC(=O)Nc2cc(OC)ccc2OC)nc1CC
2% | CC(Oc1ccccc1)C(=O)Nc1nc2ccc(S(N)(=O)=O)cc2s1 (centres undefined)
-1% | CCOc1ccc(CCNC(=O)c2cn(-c3cccc(OC)c3)c(=O)c3ccccc23)cc1
0% | Cn1ncc(C(=O)N2CCN(c3ccc(F)cc3)CC2)c1C1CCN(C(=O)OC(C)(C)C)CC1
-1% | O=c1c2oc3ccccc3c2n(Cc2ccc(F)cc2)c(=O)n1Cc1ccco1
0% | CCOC(=O)c1ccccc1NC(=O)c1cnn(-c2ccc(OC)cc2)c1C1CCN(C(=O)OC(C)(C)C)CC1

Additional entries.
miR-21 reporter | structure
3% | COC(=O)c1ccc2c(=O)n(CCCCCC(=O)NCc3ccc(OC)cc3)c(=O)[nH]c2c1
-1% | CCOCCCNC(=O)c1cn(CC)c2ccc(S(=O)(=O)N3CCc4ccccc4C3)cc2c1=O
7% | CSc1cccc(NC(=O)C2CCN(c3ncnc4c3nc3n4CCCCC3)CC2)c1
-6% | CCc1ccc(-c2cn3c(n2)sc2cc(C(=O)NCC(C)c4ccccc4)ccc23)cc1 (centres undefined)
2% | Cc1ccc(CCNC(=O)c2cc3n(n2)CCCN(Cc2ccc(C)cc2)C3=O)cc1
-2% | COc1ccc(NC(=O)c2oc3ccc(S(=O)(=O)N4CCCCC4)cc3c2C)cc1Cl
-2% | CCOc1ccccc1-c1noc(CSc2nnc(-c3ccccc3)n2-c2ccc(OC)cc2)n1
0% | Cc1ccc(N2CCN(c3nc4ccc(C(=O)c5ccccc5)cc4n4cnnc34)CC2)c(C)c1
1% | CCOc1ccc(NS(=O)(=O)c2ccc3[nH]cc(C(=O)N4CCCC4)c(=O)c3c2)cc1
10% | CC(=O)c1cccc(NC(=O)c2c(N3CCCC3=O)c3cc(F)ccc3n2C)c1

Already shown: 3 of the compounds above.
miR-21 reporter | structure
0% | Cc1ccc(N2CCN(c3nc4ccc(C(=O)c5ccccc5)cc4n4cnnc34)CC2)c(C)c1
1% | CCOc1ccc(NS(=O)(=O)c2ccc3[nH]cc(C(=O)N4CCCC4)c(=O)c3c2)cc1
10% | CC(=O)c1cccc(NC(=O)c2c(N3CCCC3=O)c3cc(F)ccc3n2C)c1

More entries:
miR-21 reporter | structure
0% | Cc1ccc(C)c(NC(=O)c2ccc(=O)n(Cc3ccc(F)cc3)c2)c1
9% | Cc1cccc(NC(=O)CSc2nnc(CNC(=O)c3cccc(C)c3)n2-c2ccccc2)c1
9% | CC1CCc2c(sc(NC(=O)c3ccccc3)c2C(=O)Nc2ccccc2)C1 (centres undefined)
0% | CCOc1ccccc1CNC(=O)Cn1c(=O)c2cccn2c2ccc(F)cc21
0% | O=C(Cn1c(=O)nc(-c2ccccc2F)c2cc(Cl)ccc21)NCCCc1ccccc1
-1% | NC(=O)c1c(NC(=O)c2nc(SCc3ccccc3F)ncc2Cl)sc2c1CCCC2
9% | COc1ccc(N(CC(=O)NCCc2ccccc2)S(=O)(=O)c2ccccc2)c(OC)c1
-24% | CCNC(=O)c1cnc2sc(N3CCCCCC3)nn2c1=O
1% | COC(=O)c1ccccc1NC(=O)c1cn2c3c(ccc(Cl)c3c1=O)OC(C)C2 (centres undefined)
-12% | CCOc1ccc(-c2cc(C(=O)NCCc3ccc(Cl)cc3)c3ccccc3n2)cc1

Further entries follow:
miR-21 reporter | structure
-3% | O=C(NCc1ccccc1Cl)C(=O)NCC(c1ccc2c(c1)OCO2)N1CCOCC1 (centres undefined)
9% | COc1ccc(S(=O)(=O)N2CCC(Oc3ccc(-n4cnnn4)cc3)CC2)cc1
-58% | CC(C)c1nc2ccc(C(=O)Nc3ccccc3F)cc2o1
3% | O=C(Cn1cnc2onc(-c3ccc(F)cc3)c2c1=O)N1CCN(c2ccc(F)cc2)CC1
11% | COc1ccc(OC)c(NC(=O)N2CC3CCCN3c3ccccc32)c1 (centres undefined)
-9% | Cc1ccc(-n2nnc(C(=O)Nc3cc(F)ccc3F)c2C)cc1F
21% | Cc1ccc2occ(CC(=O)Nc3ccc(S(=O)(=O)N4CCC(C)CC4)cc3)c2c1
-4% | Cc1nc2sc(C)c(C)n2c(=O)c1S(=O)(=O)N1CCN(c2ccccc2F)CC1
? | O=C(CN1C(=O)C(c2ccc(F)cc2)=NC12CCCCCC2)Nc1ccccc1Cl
0% | CC1CCN(S(=O)(=O)c2ccc3c(c2)c(=O)c(C(=O)NCc2ccc(Cl)cc2)cn3C)CC1

(list continues)
miR-21 reporter | structure
10% | CCOc1ccc(CNC(=O)c2ccc3nc(Cc4ccc(OC)cc4)oc3c2)cc1OC
-5% | Cc1cccc(Cn2c(SCc3ccc(C(=O)NC4CCCC4)cc3)nc3ccncc32)c1
-64% | O=C(Nc1ccc2oc(-c3ccc4ccccc4c3)nc2c1)c1cc(Br)ccc1Cl
22% | COc1ccc(Cc2nc3ccccc3n2Cc2ccccc2C)cc1
-12% | Cc1oc2ncn(CC(C)C)c(=O)c2c1C(=O)NCCc1ccccc1
-10% | CC(C)Oc1ccc(CNC(=O)c2cnc3sc(N4CCCCCC4)nn3c2=O)cc1
-9% | CCCn1cc(S(=O)(=O)c2cccc(Cl)c2)c(=O)c2cc(F)c(N3CCCC3)cc21
4% | CC(Oc1ccccc1F)C(=O)NCC1(N2CCOCC2)CCCCC1 (centres undefined)
1% | COc1cc(-c2ccno2)ccc1S(=O)(=O)N1CCN(c2ccc(C(C)=O)cc2)CC1
-3% | Cc1cc(C)c(NC(=O)Cn2c(=O)n(CCC(=O)N3CCc4ccccc4C3)c(=O)c3ccccc32)c(C)c1

The list goes on:
miR-21 reporter | structure
-2% | O=C(NCc1ccccc1Cl)C1CCN(C(=O)N2CCOc3ccccc32)CC1
13% | Cc1cccc(N2CCN(C(=O)c3ccc4c(c3)N(Cc3ccccc3)C(=O)c3ccccc3S4(=O)=O)CC2C)c1 (centres undefined)
8% | CCCn1c2ccccc2c2cnn(CC(=O)N3CCN(c4ccccc4F)CC3)c(=O)c21
? | CCCCC(Sc1nc2cc3c(cc2c(=O)n1CCCC(=O)NCc1ccc(OC)cc1)OCO3)C(=O)OCC (centres undefined)
-6% | CCCc1cc(=O)n2[nH]c(NC(=O)c3ccc(C(C)(C)C)cc3)nc2n1
-1% | Cc1nn(S(=O)(=O)c2ccc(C(C)(C)C)cc2)c(C)c1S(=O)(=O)N1CCCCCC1
-38% | CC(=O)c1ccc(NC(=O)CN2C(=O)c3cccnc3Sc3ccccc32)cc1
0% | CCOC(=O)c1cc2c(=O)n3ccccc3nc2n(CC(C)C)c1=NC(=O)COc1ccc(Cl)cc1
2% | CC1CCN(S(=O)(=O)c2ccc3c(c2)oc(=O)n3CC(=O)O)CC1
-6% | O=C(Nc1ccc(Cl)cc1)c1ccc2c(c1)N(Cc1ccccc1)C(=O)c1ccccc1S2(=O)=O

The list goes on.
miR-21 reporter | structure
-21% | CN(Cc1ccccc1)S(=O)(=O)c1nnc(NC(=O)c2cccc(Cl)c2)s1
3% | COc1ccc(C(=O)NCC(c2cccs2)S(=O)(=O)c2cccs2)cc1 (centres undefined)
-3% | COc1ccc(NC(=O)Cn2c(=O)n(-c3ccc(OC)cc3)c(=O)c3sc4ccccc4c32)cc1
3% | COC(=O)CSc1nc2sc3c(c2c(=O)n1Cc1ccccc1)CCC(C(C)(C)C)C3 (centres undefined)
-6% | CCCCc1ccc(NC(=O)CSc2nc3ccccc3nc2N2CCCCC2)cc1
2% | Cc1ccccc1NC(=O)c1c(C)oc2ccc(O)c(CN3CCCC3)c12
0% | CCc1ccc(NC(=O)CCc2c(C)n(C)c3cc(-c4ccccc4C)nn3c2=O)cc1
-5% | Cc1cccc(CN2C(=O)c3ccccc3Sc3ccc(C(=O)NCc4ccco4)cc32)c1
3% | O=C(NCCO)C(=O)NCC(c1ccc2c(c1)OCO2)N1CCOCC1 (centres undefined)
1% | Cc1ccc(NC(=O)Cn2c(=O)n(CCCCCC(=O)NCc3ccc(F)cc3)c(=O)c3sccc32)cc1C

Later entries
miR-21 reporter | structure
-1% | COc1ccc(-c2nc3c4ccccc4n(CC(=O)N4CCN(c5ccccc5OC)CC4)c(=O)n3n2)cc1
-4% | CSc1ccc(CNC(=O)c2cc3c(=O)n(Cc4ccco4)ccc3nc2C)cc1
6% | CCOc1cc(-c2nnc(SCC(=O)NCc3ccc(C)cc3)nc2-c2ccc(OC)c(OCC)c2)ccc1OC
6% | Cc1cccn2c(Nc3ccccc3)c(-c3cccs3)nc12
-24% | CCOc1ccccc1C(=O)Nc1cc2c(cc1N1CCOCC1)n(C)c(=O)n2C
19% | Cc1c(C(=O)Nc2cccc(Cl)c2)oc2ccc(S(=O)(=O)N(C)C3CCCCC3)cc12
0% | CCOC(=O)c1cc(-c2ccc(F)cc2)n(CC(=O)NCc2ccc(OC)cc2)c1C
1% | Nc1cc(=O)nc(SCC(=O)Nc2ccccc2)n1CCc1ccccc1
-10% | COC(=O)c1ccc(Cl)cc1NC(=O)NCCc1c(C)nn(C)c1C
-12% | O=C(CCS(=O)(=O)c1ccc(Br)s1)Nc1c(F)cccc1F

More structures follow:
miR-21 reporter | structure
1% | COCCCNC(=O)C(C)n1c2ccccc2c2cnn(C)c(=O)c21 (centres undefined)
7% | Cn1c2ccccc2c2cnn(CC(=O)Nc3ccccc3C(F)(F)F)c(=O)c21
23% | CC(=O)N1c2ccc(S(=O)(=O)NCC3CCC(C(=O)Nc4cc(C)ccc4C)CC3)cc2CC1C (centres undefined)
1% | CC(=O)c1[nH]c(C)c(C(=O)NCc2ccc(Cl)cc2)c1C
-2% | CCOC(=O)c1ccccc1NC(=O)CSc1ccc(-c2sc(-c3ccccc3)nc2C)nn1
7% | CCOc1ccc(Nc2c(S(=O)(=O)c3ccc(Cl)cc3)cnc3ccc(OCC)cc23)cc1
-8% | CCCn1cc(S(=O)(=O)c2ccc(OC)cc2)c(=O)c2cc(F)c(N3CCCC(C)C3)cc21 (centres undefined)
-1% | CC1=C(C(=O)Nc2ccc(F)cc2F)C2(CCN(C(C)C)CC2)OC1=O
1% | COc1ccc(OC)c(NC(=O)CCc2nc(-c3ccc(C)cc3)no2)c1
-3% | Cc1ccc(-c2nc3ncccc3o2)cc1NC(=O)c1ccc(-c2cccc(Cl)c2C)o1

Given as a markdown table: 2 of the compounds above.
| smiles | miR-21 reporter |
| --- | --- |
| CC(=O)c1[nH]c(C)c(C(=O)NCc2ccc(Cl)cc2)c1C | 1% |
| CCOC(=O)c1ccccc1NC(=O)CSc1ccc(-c2sc(-c3ccccc3)nc2C)nn1 | -2% |

Screening data (PubChem)

Some of the compounds tested; count on the stated rates, not on these rows.
